OX1R antag: OX1R (HCRTR1) antagonists, primary screen, fluorescence, CHO/OX1R cells, Fluo-8 calcium, orexin A; Orexin/Hypocretin receptor type 1 (Homo sapiens), O43613; Fluo-8 calcium fluorescence; inhibition, % at 5 µM; actives 0.43% (n = 330,000); AID 434989, 2010;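 active means inhibition above its plate's threshold, mean inhibition of all tested compounds on the plate plus 3 SD, cut at about 37% in these data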;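 further: 0% = orexin A challenge wells and 100% = SB-334867-A antagonist wells; not every result past the cut was called active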
Target sequence (O43613 whole entry, looked up): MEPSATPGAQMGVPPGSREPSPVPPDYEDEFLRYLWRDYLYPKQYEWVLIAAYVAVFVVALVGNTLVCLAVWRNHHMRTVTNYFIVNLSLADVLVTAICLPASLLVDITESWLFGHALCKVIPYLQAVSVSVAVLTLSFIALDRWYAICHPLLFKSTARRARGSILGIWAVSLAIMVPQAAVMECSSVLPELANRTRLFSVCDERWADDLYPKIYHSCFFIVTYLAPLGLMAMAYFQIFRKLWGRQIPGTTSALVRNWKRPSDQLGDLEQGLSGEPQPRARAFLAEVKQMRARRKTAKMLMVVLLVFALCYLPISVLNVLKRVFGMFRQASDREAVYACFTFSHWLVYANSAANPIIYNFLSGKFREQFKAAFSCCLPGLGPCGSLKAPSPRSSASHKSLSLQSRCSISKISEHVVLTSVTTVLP
* hit, by the source's call. Only part of the results is shown; most or all hits stand in other tables.

compound | OX1R antag
COc1ccc2c(c1)C(C)CC(C)(C)N2C(=O)CSc1ncn[nH]1 (centres undefined) | -20.8
CC(=O)OCC(=O)[C@@]1(O)CC[C@H]2[C@@H]3CCC4=CC(=O)C=C[C@]4(C)[C@H]3C(=O)C[C@@]21C | -7.5
CC(C)CNC(=O)c1c2c(nc3ccccc13)-c1ccccc1CC2 | -37.5
COc1ccccc1C(=O)NCC1CCN(c2ccc(S(=O)(=O)N3CCOCC3)cc2)CC1 | -20.1
Cc1cc(C)cc(NC(=O)CSc2nnc(C3CC3)n2CC2CCCO2)c1 (centres undefined) | -18.2
COc1ccc(CCC(C)NCc2ccc(F)cc2)cc1 (centres undefined) | -7.9
COc1ccccc1NC(=S)NCCc1ccc(OC)c(OC)c1 | -7.3
Cn1c(SCC(=O)Nc2cccnc2)nnc1-c1ccccc1F | -22.5
CCC(C)NC(=O)c1ccc(CN2CCc3ccccc3C2)cc1 (centres undefined) | -13.7
CCCc1cc(=O)[nH]c(SCC(=O)NCCCC(=O)OCC)n1 | -10.5
C=CCn1c(-c2cc(-c3ccccc3)sc2N)n[nH]c1=S | -5.5
Cc1ncc(CO)c2cc(S(=O)(=O)c3ccc(F)cc3)c(=O)oc12 | -4.2
CC(C)(C)NC(=O)c1ccc2c(c1)C(=O)N(Cc1ccco1)C2=O | 10.7
CCOC(=O)c1cccc(NC(=O)c2ccc(NC(=O)c3ccco3)cc2)c1 | -15.8
Cc1ccc(C(=O)CNc2ccc(F)cc2)cc1 | -6.6
CC1(C)N=C(c2cccs2)C(C)(C)N1O | -9.8
COc1ccc(S(=O)(=O)N(CC(=O)Nc2ccccc2C(=O)N2CCOCC2)c2ccc(F)cc2)cc1 | -19.4
COc1ccc(C(=O)Nc2ccccc2C(=O)Nc2cccnc2)cc1 | -26.7
CN(C)/C=C1/C=C(c2ccccc2)OC1=O | -27.3
COc1cc(C2NC(=O)NC(C)=C2C(=O)OC(C)(C)C)ccc1OCC(=O)O (centres undefined) | -6.8

(listing goes on)
compound | OX1R antag
COc1cccc(CC(=O)OCC(=O)N(C)CC(=O)Nc2ccc(F)cc2)c1 | -9.2
CC(C)CCN1CCN(Cc2cccc(-n3cccn3)c2)CC1CCO (centres undefined) | -24.5
Cc1nn(Cc2noc(C(=O)NCc3ccc4c(c3)OCO4)n2)c(C)c1Br | 0.6
CC(C)C(NC(=O)c1ccccc1)C(=O)NC1=NCCS1 (centres undefined) | -15.9
COc1ccc(C)cc1C(=O)C1CC(C(=O)O)C(C)(C)C1C (centres undefined) | -12.9
Cc1cccc(C(C)C)c1NC(=O)CN(C)Cc1cccc(F)c1 | -45.5
CCSC(C)CC1C/C(=N/O)c2c(C)noc2C1 (centres undefined) | -22.8
CCN1CCN(c2c(S(=O)(=O)c3ccc(C)c(C)c3)cnc3ccc(F)cc23)CC1 | -26.9
CCn1c(=O)c(CCC(=O)NCCN2CCOCC2)c(C)c2c(C)nn(-c3ccccc3)c21 | -6.9
Cc1cccc(NC(=O)CSc2c3c(nc4ccccc24)CCC3)n1 | -27.1
C=CCc1ccc(OCCCOc2ccc(C)c(C)c2)c(OC)c1 | -6.7
Cc1ccc(-c2ccc(SCC(=O)NC3CCCCC3)nn2)cc1 | -27.5
COc1ccc(/C(N)=N/OC(=O)c2ccc3c(c2)OCO3)cc1OC | -5.7
Cc1cc(NC(=O)CCS(=O)(=O)c2nc(-c3ccccc3)cc(C(F)(F)F)n2)no1 | -12.7
CCOC(=O)c1sc(NC(=O)CN(CC)CC)c(C(=O)OCC)c1C | -32.2
CCOC(=O)/C(=N\Nc1ncnc2ccccc12)c1ccc(OC)cc1 | -20.6
CCC1CCCCN1Cc1nc2c(c(=O)n(C)c(=O)n2C)n1CCCc1ccccc1 (centres undefined) | -19.1
Cc1ccn(-c2ccc(NC(=O)c3cccs3)cc2)n1 | 0.8
COCCn1c(SCC(=O)Nc2ccccc2F)nc2c([nH]c3ccccc32)c1=O | -32.0
CC1=Nn2c(nnc2-c2ccco2)SC1 | 4.3

Later entries.
compound | OX1R antag
O=C(CSc1nnc2c3c4c(sc3ncn12)CCCC4)NCc1ccco1 | -37.1
O=C1N/C(=C\c2ccccc2)c2ccccc21 | -9.4
CCOc1cccc(C2/C(=C(/O)c3ccc4c(c3)CC(C)O4)C(=O)C(=O)N2Cc2ccncc2)c1 (centres undefined) | -39.3
O=C(NNC(=O)c1ccc(NC(=O)c2ccccc2)cc1)c1ccc(F)cc1 | -6.7
COCCN(Cc1cc2cc(C)ccc2n2nnnc12)C(=S)Nc1ccccc1C | -0.9
COc1ccc(C(=O)NCC(=O)N2CCC3(CC2)NCCc2[nH]cnc23)cc1 | 5.1
Cc1ccc(C(=O)N/C(=C\c2ccco2)C(=O)N2CCCCC2)cc1 | -11.1
CCOC(=O)Oc1ccc2c(=O)c(Oc3cccc(C)c3)coc2c1 | -0.9
CCOCCCNC(=O)C(NC(=O)Cc1cccs1)c1ccccc1 (centres undefined) | -21.9
CCOCC(=O)Nc1cccc(C(=O)OCC)c1 | -3.0
CC(=O)Nc1ccc(S(=O)(=O)NCCCN2CCN(Cc3ccccc3)CC2)cc1Cl | -18.9
CCOC(=O)Cc1c(C)nc2c(-c3ccccc3)c(C)[nH]n2c1=O | -7.9
COCCOCCn1cnc2ccccc21 | -7.4
COCCCn1c(SCC(=O)N2CCCC(C)C2)nnc1-c1ccco1 (centres undefined) | -19.4
CCOC(=O)c1sc(C)c2c1NC(C)(c1ccccc1)NC2=O (centres undefined) | -30.4
COC(=O)Nc1ccc(S(=O)(=O)N2CCC(C(=O)N(C)C3CCCCC3)CC2)cc1 | -18.4
Cc1cc(C)nc(SCC(=O)Nc2nonc2N)n1 | -7.0
O=C(NC1CCCC1)c1cc(S(=O)(=O)N2CCCC2)ccc1Cl | -7.7
C/C(N)=C(/C#N)C(=O)COc1ncnc2ccccc12 | -2.2
O=C(CCc1nnc2n(Cc3ccc(Cl)cc3)c(=O)c3ccccc3n12)NCCCN1CCOCC1 | -9.4

The list goes on.
compound | OX1R antag
Cc1cccc(NC(=S)N(Cc2ccc(Cl)cc2)Cc2ccc(C(=O)O)cc2)c1 | -20.3
CCOc1ccc(NC(=O)NCc2ccc3c(c2)OCO3)cc1 | -6.3
O=C(c1cc2ccccc2oc1=O)N(Cc1cccs1)Cc1cccs1 | -17.9
COC(=O)c1cc(OC)c(OC)cc1NC(=O)Nc1ccc(OC)cc1OC | -19.1
O=C1CCC(C(=O)Nc2cccc3ccccc23)N1 (centres undefined) | -8.7
O=C(NC(=S)NNS(=O)(=O)c1ccccc1)c1ccc([N+](=O)[O-])cc1 | 2.2
COCCCNC(=O)c1cc2c(s1)CS(=O)(=O)C2 | -4.6
O=c1[nH]c(CN2CCCC2)nc2sc3c(c12)CCC3 | -22.5
COc1ccc(OCc2nc(N)nc(Nc3ccc(C)cc3)n2)cc1 | -42.6
Cc1cccc(C2c3[nH]c4ccccc4c3CCN2C(=O)c2noc3c2CCCC3)n1 (centres undefined) | -16.7
Cc1ccc(NC(=O)C(NS(=O)(=O)c2cccc3nsnc23)C(C)C)nc1 (centres undefined) | -23.3
O=C(NC1(C(F)(F)F)C(=O)Nc2c1c(=O)[nH]c(=O)n2Cc1ccco1)C1CC1 (centres undefined) | -13.6
CCOc1ccc(S(=O)(=O)N2Cc3ccccc3CC2C(=O)O)cc1 (centres undefined) | -12.7
O=C(COc1ccccc1)NCC(=O)Nc1cccc2ccccc12 | -7.6
Cc1cccc(-n2c(CNC(=O)COc3ccccc3)nnc2SCC(=O)Nc2nccs2)c1 | -20.5
Cc1ccccc1NC(=O)Cn1c(CCC(=O)O)ccc1-c1cccs1 | -3.9
O=C(CSc1nnc(NC(=O)c2c(F)cccc2Cl)s1)Nc1ccccc1F | -11.8
CCOc1ccc(C(=O)Cc2cc3cccc(OC)c3oc2=O)cc1 | -9.9
CCN(C(=O)c1coc(=O)c(Br)c1)c1ccc2c(c1)OCO2 | -26.4
COc1ccc(S(=O)(=O)c2c(O)cc(C)c(NS(=O)(=O)c3ccccc3)c2C)cc1 | -6.1

The list goes on.
compound | OX1R antag
CCOC(=O)C1(CC2CC2)CCN(Cc2cnc(-c3ccccc3C)nc2)CC1 | -23.3
CCOC(=O)C(=CNc1ccc(O)c(C(=O)OC)c1)C(=O)OCC | -28.4
O=C(NCc1ccco1)C1CC(c2ccc(C(F)(F)F)cc2)=NO1 (centres undefined) | 0.3
C/C(=N\O)c1ccc(Cl)c(Cl)c1 | 0.5
CC(=O)C(C)Oc1ccc2c3c(c(=O)oc2c1C)CCCC3 (centres undefined) | -20.4
Cc1ccc2c(c1)N(CC(=O)N1CCN(c3nc4ccccc4s3)CC1)C(=O)C(C)O2 (centres undefined) | -29.7
COc1ccc(CCC(=O)NCc2ccccc2Cl)cc1OC | -12.4
O=C(NCSc1ccnc(SCNC(=O)c2ccc(F)cc2)n1)c1ccc(F)cc1 | -16.3
Cc1csc(CNC(=O)C2CCC(=O)N(CCc3cccc(F)c3)C2)n1 (centres undefined) | -15.3
CCc1c(C)nc(N2CCN(c3ccc(Cl)cc3)CC2)[nH]c1=O | -10.1
O=C(O)CCn1nnc(-c2ccccc2)n1 | -1.6
O=C(/C=C/c1ccc(Cl)cc1)N1CCN(c2ccc([N+](=O)[O-])c(N3CCOCC3)c2)CC1 | -20.6
O=C(NNS(=O)(=O)c1ccccc1[N+](=O)[O-])c1cccc(Br)c1 | -7.7
Cc1ccc(Cl)cc1NC(=O)Cn1cc2c(n1)CCCC2 | -8.1
CS(=O)(=O)N(Cc1ccc(Cl)cc1)c1ccc(C(=O)NCCSc2ccccn2)cc1 | -16.7
C[C@@H]1C[C@H](O)c2cc(Cl)ccc2N1 | -11.6
Cc1ccc(NC(=O)c2sc3ncn(CC(=O)N4CCN(c5ccccn5)CC4)c(=O)c3c2C)cc1F | -26.4
Cc1cccc(-n2c(SCc3cc(=O)n4ccsc4n3)nc3ccccc3c2=O)c1 | -16.1
O=C(CSc1nc2ccccc2o1)NC(=O)NCc1ccco1 | -2.7
Cc1cc(C(=O)Cn2nnc3ccccc3c2=O)c(C)n1-c1c(C)n(C)n(-c2ccccc2)c1=O | -1.0

Following part.
compound | OX1R antag
CC1CCCN1CC#CC(O)(c1ccccc1)c1ccccc1 (centres undefined) | -16.8
O=C(Cc1ccccc1)c1c[nH]c(C(=O)NCCCn2ccnc2)c1 | -9.7
COC(=O)C1=CN(Cc2cccs2)C=C(C(=O)OC)C1c1ccc(OC)cc1OC | -36.8
Cc1ccc(C(=O)NCCCn2ccnc2)o1 | 1.2
CCN(CC(=O)NC(=O)NCc1ccccc1)Cc1ccccc1 | -25.1
O=C(Nc1ccc(N2CCCCC2)cc1)c1cc(S(=O)(=O)N2CCOCC2)ccc1F | -21.2
COc1ccc(/C=C/C(=O)NC(=S)Nc2ccccn2)cc1 | -16.8
CC(=O)c1cccc(N(CC(=O)NCC2CCCO2)C(=O)CCC(=O)Nc2cc(C)on2)c1 (centres undefined) | -7.2
O=C(NCC1CC1)C1(C(F)(F)F)CC(CCCO)CCCO1 (centres undefined) | -19.7
Cc1nc(SCC(=O)N2CCCCC2)c2c(C)c(C)sc2n1 | -16.8
Cc1c(S(=O)(=O)Nc2ccc3c(c2)OCCO3)cnn1C | -11.6
Cc1cc(NC(=O)c2cc(-c3ccc(C)s3)nc3ccccc23)no1 | -24.6
COc1ccc(S(=O)(=O)N(C)CC(=O)NC2CCCCC2)cc1Cl | -21.9
N#Cc1c(NC(=O)COC(=O)c2ccc(F)cc2)sc2c1CCC2 | -2.9
COc1cccc(N(CC(=O)NCCSc2ccccc2)S(C)(=O)=O)c1 | -10.9
O=C(Nc1ccc2c(c1)CCC2)c1ccccc1F | -10.4
CC1(C)Cc2nc3[nH]c(=S)[nH]c(=O)c3cc2CO1 | -16.2
O=C(NCC1CCCN1S(=O)(=O)c1cccs1)C(=O)Nc1ccc(F)cc1F (centres undefined) | -2.9
Cc1ccc(CN2CCN(/N=C/c3ccccc3)CC2)cc1 | -10.5
CC(C)OP(=O)(c1ccccc1)c1ccccc1 | -5.8

Shown as labelled records: entries from further up
> COc1ccc(OCc2nc(N)nc(Nc3ccc(C)cc3)n2)cc1
  OX1R antag = -42.6
> Cc1nn(Cc2noc(C(=O)NCc3ccc4c(c3)OCO4)n2)c(C)c1Br
  OX1R antag = 0.6

Continuation.
compound | OX1R antag
CCOCCCNC(=S)Nc1ccc2nc3n(c(=O)c2c1)CCCCC3 | -26.0
COc1ccc(NC(=S)N2CCC(NC(=O)c3ccco3)CC2)cc1 | -3.7
Cc1ccc(C2=NS(=O)(=O)N(C)C(C(=O)NC(C)c3ccccc3)=C2)cc1 (centres undefined) | -9.5
CN(CCc1ccccn1)C(=O)CCC1CCCN(C(=O)c2ccsc2)C1 (centres undefined) | -16.6
O=C(CSc1nc2[nH]ncc2c(=O)[nH]1)NCc1ccccc1Cl | 15.4
CCN(CC(=O)NCc1ccc(Cl)cc1)C(=O)c1cccc(S(=O)(=O)Nc2ccc(OC)cc2)c1 | -30.4
CCN(CC(=O)NC(C)C)C(=O)[C@@H](NC(=O)c1ccco1)C(C)C | -0.3
CCN1CCN(C(=O)c2cnn3c(C(F)F)cc(-c4ccc(C)cc4)nc23)CC1 | -18.7
CCOC(=O)C(NC(=O)c1ccccc1OCC)(Nc1ncccn1)C(F)(F)F (centres undefined) | -17.8
COc1ccc(OC)c(NC(=O)CSc2nnc(Cn3c(=O)sc4ccccc43)n2C)c1 | -23.0
Cn1cc(Br)c(C(=O)NNC(=O)Nc2ccccc2C(F)(F)F)n1 | -13.1
O=c1[nH]c(CSc2nnnn2-c2ccc(Cl)cc2)nc2ccccc12 | -24.1
COC(=O)c1ccccc1NC(=O)CN(Cc1ccc(Cl)cc1)S(C)(=O)=O | -21.5
C=CC[C@H]1CC(C)=C[C@H](CC=C)N1 | -13.9
